Arbovirus inh = blocks arbovirus infection; inhibition, % at 10 µM; AID 1251; 0.37% of 200,000 active; arbovirus infection cell-based antiviral screen;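 active = inhibition from about 30%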;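 also: bluetongue infection of BSR cells; cell survival read as ATP light after 72 h; 0% = infected wells without compound and 100% = uninfected wells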
Mtb betalactam = beta-lactam sensitization of Mtb H37Rv. inhibition, % at 25 µM. M. tuberculosis H37Rv growth with meropenem, percent inhibition; hits of this screen are not shown here. 0.27% of 330,000 active;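 active = about 74% or more and at least 40 points above the plate without the antibiotic, then above 30% in a dose series; inconclusive = first-round hits that could not be retested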;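 also: growth measured after seven days incubation then overnight dye step; 0% = bacteria only wells and 100% = bacteria with antibiotic; twin plates without the antibiotic show which effects depend on it; some results filed as inactive read as strong as hits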
Mtb H37Rv = M. tuberculosis H37Rv growth inhibitors, H37Rv strain (AID 1626); 0.95% of 220,000 active; one-dose inhibition, % at 10 µM; IC50 in µM for titrated hits; M. tuberculosis H37Rv growth inhibition; higher % means a stronger effect;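 active = confirmed in a dose series; inconclusive = inhibition above 80% but not taken into the dose series; inactive = below 80% or under 30% at every dose of the series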;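 also: bacteria incubated seven days before Alamar blue readout; 0% = bacteria only wells and 100% = bacteria with antibiotic wells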
YopH inh = YopH (Yersinia) phosphatase inhibition; fluorescence Ex485/Em525; 0.16% of 140,000 active; AID 898; inhibition, %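 (about 10 µM by stock and volumes)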;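 active = inhibition of 50% or more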;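 also: controls were vehicle for no effect and minimum signal wells for full effect; inactives centre near -20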
RecA intein inh = inhibitors of M. tuberculosis RecA intein splicing. inhibition, %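 (about 9 µM by stock and volumes)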. cell-free RecA intein splicing, fluorescence. 0.75% of 290,000 active. AID 2221; in the data active = inhibition above about 30%; inconclusive = no clear call, values can overlap the other calls;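 also: 0% = vehicle wells and 100% = reference inhibitor control wells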
Target sequence (P9WHJ3 whole entry, looked up): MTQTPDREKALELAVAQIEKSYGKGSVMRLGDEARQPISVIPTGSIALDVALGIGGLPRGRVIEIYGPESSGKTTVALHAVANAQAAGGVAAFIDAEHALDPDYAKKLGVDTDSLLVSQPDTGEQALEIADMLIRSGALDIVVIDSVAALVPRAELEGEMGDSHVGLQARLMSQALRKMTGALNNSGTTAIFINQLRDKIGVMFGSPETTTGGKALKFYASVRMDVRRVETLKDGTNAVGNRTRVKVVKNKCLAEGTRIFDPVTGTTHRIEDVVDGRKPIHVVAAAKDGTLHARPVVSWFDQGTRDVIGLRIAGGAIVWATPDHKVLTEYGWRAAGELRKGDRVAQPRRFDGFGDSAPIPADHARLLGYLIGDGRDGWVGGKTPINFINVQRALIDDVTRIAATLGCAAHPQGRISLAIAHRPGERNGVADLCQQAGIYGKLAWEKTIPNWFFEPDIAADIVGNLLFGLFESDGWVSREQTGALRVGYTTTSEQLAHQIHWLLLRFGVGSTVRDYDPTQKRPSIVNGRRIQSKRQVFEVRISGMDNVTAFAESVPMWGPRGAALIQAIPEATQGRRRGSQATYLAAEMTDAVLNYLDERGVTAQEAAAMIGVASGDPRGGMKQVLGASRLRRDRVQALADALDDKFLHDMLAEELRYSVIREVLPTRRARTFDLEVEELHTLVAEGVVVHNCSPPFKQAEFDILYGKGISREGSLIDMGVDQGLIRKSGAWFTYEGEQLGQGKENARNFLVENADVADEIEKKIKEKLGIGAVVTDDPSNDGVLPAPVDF
Arbovirus inh repeat = further read-out of Arbovirus inh, marked with its call; inhibition, %; measured here: 10K subset replicate screen; many hits read low in the repeat;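 first of two repeat runs on a subset; 0% = infected and 100% = uninfected wells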
The depositor's hits bear a star; ? = inconclusive; · = no result given.

The opening 6 compounds, ahead of the listing:
SMILES	Arbovirus inh	Mtb betalactam	Mtb H37Rv	YopH inh	RecA intein inh	others
O=C(O)Cc1sc(-c2ccccc2Cl)nc1-c1ccccc1	2	15	-1%	·	-1.7
CC(=O)Nc1ccc(S(=O)(=O)NCC(=O)OCc2ccccc2)cc1	-1	4	-3%	-31	1.0
Clc1ccc(Cn2c(CN3CCCC3)nc3ccccc32)cc1	-12	60	·	-13	2.4
Cc1ccc(-n2c(C)cc(C)c(C#N)c2=O)cc1C	5	4	-6%	·	·
Cc1c(C(=O)O/N=C(\N)c2ccccn2)cccc1[N+](=O)[O-]	·	-1	0%	·	2.5
O=c1nc2ccccc2c(NS(=O)(=O)c2ccc(Cl)cc2)n1-c1ccccc1	15	2	-3%	-43	-3.1

The whole of this part, repeating the preview:
SMILES	Arbovirus inh	Mtb betalactam	Mtb H37Rv	YopH inh	RecA intein inh	others
O=C(O)Cc1sc(-c2ccccc2Cl)nc1-c1ccccc1	2	15	-1%	·	-1.7
CC(=O)Nc1ccc(S(=O)(=O)NCC(=O)OCc2ccccc2)cc1	-1	4	-3%	-31	1.0
Clc1ccc(Cn2c(CN3CCCC3)nc3ccccc32)cc1	-12	60	·	-13	2.4
Cc1ccc(-n2c(C)cc(C)c(C#N)c2=O)cc1C	5	4	-6%	·	·
Cc1c(C(=O)O/N=C(\N)c2ccccn2)cccc1[N+](=O)[O-]	·	-1	0%	·	2.5
O=c1nc2ccccc2c(NS(=O)(=O)c2ccc(Cl)cc2)n1-c1ccccc1	15	2	-3%	-43	-3.1
Cc1cc(=O)oc(C)c1C(=O)Nc1c(C)n(C)n(-c2ccccc2)c1=O	8	-4	4%	-33	-6.5
COc1ccc(C(=O)Nc2cccc(C(C)=O)c2)cc1S(=O)(=O)N1CCOCC1	0	-6	0%	10	-0.8	Arbovirus inh repeat=0
CCn1c(SCC(=O)Nc2ccc3c(c2)OCO3)nc2c(c1=O)SC(C)C2 (centres undefined)	-6	0	-5%	-2	0.8	Arbovirus inh repeat=-5
O=C(CCNS(=O)(=O)c1ccccc1C(F)(F)F)N1CCN(c2ccccc2O)CC1	·	-8	·	·	7.7
COc1ccc(Cl)cc1N1C(=O)C2CCCN2C1c1sccc1C (centres undefined)	2	1	-10%	-9	-0.6
COc1cccc(C(C(=O)NC2CCCC2)N(Cc2ccc(C)cc2)C(=O)c2ccco2)c1OC (centres undefined)	4	-8	3%	-30	-5.6
O=C(Nc1ccccc1N1CCCCC1)c1ccc(Cl)c([N+](=O)[O-])c1	0	4	3%	·	-1.4
CCc1c(C)n([O-])c2c([n+]1=O)CCC2	-1	-3	3%	16	-3.4	Arbovirus inh repeat=4
O=C(N1CCOCC1)N1CCN(c2ccccn2)CC1	2	-10	-12%	9	-1.9
CN(C)CCCN(Cc1ccccc1)C(=S)Nc1ccc(SC(F)F)cc1	-26	7	5%	·	-1.3
COC(=O)c1ccc2c(=O)n(-c3ccc(OC)cc3)c(=S)[nH]c2c1	-1	-5	-2%	·	-2.4
CC(C)CCNC(=O)c1onc(CSc2ccncc2)c1C(=O)NCCC(C)C	·	0	6%	·	1.9
CN1C(=O)[C@H]2[C@@H](C3CC3)N3C(=O)CN(CC4CC4)C(=O)[C@@]3(C)[C@H]2C1=O	·	-4	·	·	0.4
c1ccc(Nc2nc(N3CCCCC3)nc(N3CCCCC3)n2)cc1	1	16	76%	-7	8.7
O=C(O)CCN1CCc2ccccc2C1c1cccs1 (centres undefined)	2	-7	2%	·	·
O=C(Nc1ccc(Cl)c(C(F)(F)F)c1)[C@@H]1CC=C[C@@H]2CCN(C3CC3)C(=O)[C@@H]21	·	-1	9%	·	1.1
COc1cc(CC(NC(C)=O)C(=O)NC2CCN(C(=O)Nc3ccccc3Cl)CC2)cc(OC)c1 (centres undefined)	4	-5	-4%	·	1.3
COc1ccc(S(=O)(=O)N2CCCC(C(=O)NCc3cccnc3)C2)cc1OC (centres undefined)	·	3	·	·	-2.3
Cc1ccc(-c2c[n+](CC(=O)Nc3ccccc3)c3n2CCC3)cc1	·	2	0%	·	-2.8

Additional records
SMILES	Arbovirus inh	Mtb betalactam	Mtb H37Rv	YopH inh	RecA intein inh	others
CCCCn1c(N)c(Sc2ccccc2[N+](=O)[O-])c(=O)[nH]c1=O	·	-4	·	·	0.2
COc1ccc(NC(=S)N=Nc2c(O)[nH]c3ccccc23)cc1	·	12	?	·	-0.5
O=C(O)CCSCCCN1C(=O)c2cccc3cccc(c23)C1=O	2	2	-6%	·	·
COc1ccc(/C=C/C(=O)NCc2cn(C)nc2C)cc1COc1ccc(Br)cc1	-13	·	10%	-27	0.2
CCOc1ccc(NC(=O)CCN2CCN(c3ccccc3F)CC2)cc1	-18	93	36µM*	-5	1.7
CCCCn1c(N)c(N(CCOC)C(=O)c2ccc(C)c(S(=O)(=O)N3CCCCC3)c2)c(=O)[nH]c1=O	·	2	·	·	-2.0
Nc1c(C(=O)C2CC2)sc2nc(-c3ccccc3)cc(C(F)(F)F)c12	-4	-2	0%	-13	-13
O=C(C1CCN(Cc2ccccc2)CC1)N1CCN(C/C=C/c2ccccc2)CC1	9	-2	-1%	-9	1.4
Fc1ccc(NC(=S)NC23CN4CN(CN(C4)C2)C3)cc1	-6	3	-3%	-29	-2.0
CCN1CCN(C(=O)c2ccc3c(c2)c(C)c(C)n3Cc2ccccc2)CC1	-25	1	2%	·	0.8
C/C(N)=C(/C#N)C(=O)CSc1nnc(C)n1-c1ccccc1	-1	-8	6%	·	·
COc1ccc(OCC(=O)Nc2ccc(C)c(S(=O)(=O)N(C)C)c2)cc1	3	-10	8%	·	1.3
CCOC(=O)c1ccc(NCc2ccncc2)cc1	·	8	25%	-27	2.4
Cc1ccc(NC(=O)Cc2csc(-c3ccccc3)n2)cc1F	7	-1	0%	-13	1.2
COc1ccc(F)cc1C(=O)C1CCCN(C(=O)CSc2ccccn2)C1 (centres undefined)	35*	11	-7%	·	-2.8
COc1ccc(N2CCN(C(=O)c3sc4ncn(CC(=O)N5CCCCC5C)c(=O)c4c3C)CC2)cc1 (centres undefined)	·	0	·	·	2.2
O=C(N/N=C1\C/C(=N\NC(=O)c2ccncc2)c2ccccc21)c1ccncc1	-27	100	?	·	95*
Cc1ccc2nc(/C(C#N)=C\c3ccc(OC(=O)c4cccs4)cc3)[nH]c2c1	-18	67	20µM*	-48	-1.8
COc1ccc(C(C)n2c(C)c3c(C)nnc(C)c3c2C)cc1 (centres undefined)	4	-4	4%	-13	5.0
CCCCn1nnnc1SCC(=O)N(CC)CC	6	1	1%	-19	-2.6
C=C1CCN([C@@H](Cc2ccccc2)C(=O)NCCCc2ccccc2)S(=O)(=O)c2ccccc21	·	0	-2%	·	6.5
Cc1ccc(C(=O)Nc2sc(Cc3ccc4c(c3)OCO4)c(C)c2C(N)=O)cc1	-18	-2	-4%	-22	-11
CC(C)[C@H](N[C@@H](C)c1ccccc1)c1c(O)ccc2ccccc12	·	72	·	·	-2.5
COc1cc2ccccc2cc1C(=O)N1CCOCC1	·	-7	·	·	-4.8
Cn1cccc1CC(=O)N/N=C/C=C/c1ccco1	4	2	-1%	-29	2.4

The list goes on; the last three above are carried over.
SMILES	Arbovirus inh	Mtb betalactam	Mtb H37Rv	YopH inh	RecA intein inh	others
CC(C)[C@H](N[C@@H](C)c1ccccc1)c1c(O)ccc2ccccc12	·	72	·	·	-2.5
COc1cc2ccccc2cc1C(=O)N1CCOCC1	·	-7	·	·	-4.8
Cn1cccc1CC(=O)N/N=C/C=C/c1ccco1	4	2	-1%	-29	2.4
COc1cc(/C=C2\C(=N)N3N=C(CC(=O)N4CCOCC4)SC3=NC2=O)cc(OC)c1OC	·	-4	·	·	-0.4
Cc1ccc(CC23CN4CCN(CC(C4)C2O)C3)c(C)c1 (centres undefined)	1	-4	-3%	-15	·
Cc1ccccc1OCC(=O)Nc1cc(Cl)ccc1Oc1ccccc1	-5	11	·	-33	-0.8
CC1(C)CC(=O)C=C(c2cccc3c2oc2ccccc23)C1	·	60	9%	·	27
Cc1noc(C)c1C(=O)Nc1ccc(N(C)C)cc1	·	-11	·	·	-3.5
CCC(C)n1nccc1NC(=O)C(C)Cl (centres undefined)	17	-3	5%	·	0.6
O=C(C(c1ccccc1)c1ccccc1)N(Cc1ccco1)C1CCS(=O)(=O)C1 (centres undefined)	6	-5	-3%	-1	-2.1
O=C(CNC(=O)C12CC3CC(CC(C3)C1)C2)N1CCN(S(=O)(=O)c2cccs2)CC1	-1	-4	-7%	-12	-1.2
COc1ccc(C2/C=C\CN(C(=O)Nc3ccccc3-c3ccccc3)CC(=O)N2Cc2ccc(F)cc2)cc1 (centres undefined)	·	3	6%	·	-14
O=C(OCc1ccccc1)C1=[N+]([O-])OC(C(=O)OCc2ccccc2)C1c1c[nH]c2ccccc12 (centres undefined)	-11	2	-6%	0	·
COc1ccc(N2C3=C(CC4=C2CC(C)(C)CC4=O)C(=O)CC(C)(C)C3)cc1	-41	8	2%	6	-58
CCCn1c(NC(=O)c2ccc(C)cc2)nc2ccccc21	-36	95	?	-13	0.5
COc1ccccc1C(=O)Nc1cc(-c2ccc(C)cc2)no1	·	54	·	·	2.4
Cc1noc(C)c1S(=O)(=O)N(CC(=O)NCc1ccc(Cl)cc1)c1ccc2c(c1)OCO2	-6	-1	6%	-51	·	Arbovirus inh repeat=-6
COc1cc(NC(=S)NC2CC2)c(OC)cc1Cl	5	-7	-2%	-23	3.3
O=C(CCN1CCOCC1)NC1CCCN(Cc2ccccc2F)C1 (centres undefined)	·	-4	·	·	-4.0
C[C@@H]1C(NC(=O)c2ccccc2)CC2CC1C2(C)C (some centres undefined)	·	8	·	·	-6.8
Cc1nc(NC(=O)c2ccc(F)cc2)nc2cc3c(cc12)OCO3	-4	-3	-12%	-24	·
CC(=O)Nc1ccc(C(=O)N/N=C(\C)CC(=O)Nc2ccc(OCc3ccccc3)cc2)cc1	-14	70	0%	-20	0.6
COc1ccc2oc(C(=O)OCC(=O)N3C(C)CCCC3C)c(C)c2c1 (centres undefined)	·	?	·	·	4.0
N#Cc1c(-c2ccccc2)nc(-c2ccccc2)nc1N1CCOCC1	-7	-4	-10%	-63	1.0
CCOc1ccc(CCNC(=O)COC(=O)c2ccc(C)s2)cc1OCC	·	-6	·	·	3.1
CCCCn1nc2cc(C(=O)NCCc3cccs3)ccc2c1OCC	-19	35	-3%	-33	0.8
CC(C)OC(=O)/C(=C/c1ccc(Br)cc1)NC(=O)c1ccco1	-4	7	14%	-48	0.2
O=C(Nc1ccc(N2CCN(c3ccc(O)cc3)CC2)cc1)Oc1ccccc1	-8	4	-3%	4	-2.5

(cont.)
SMILES	Arbovirus inh	Mtb betalactam	Mtb H37Rv	YopH inh	RecA intein inh	others
COc1ccc(S(=O)(=O)N(C)C)cc1NC(=O)CSc1ncccn1	-2	2	3%	·	-3.3
CCOC(=O)N1CCN(C(=O)c2ccc(CNS(=O)(=O)c3ccc(NC(C)=O)cc3)cc2)CC1	·	-3	·	·	2.0
COc1cc(/C=C/C(=O)OCC(=O)Nc2ccc([N+](=O)[O-])cc2)ccc1O	·	5	-9%	·	4.3
Cc1c(C(=O)OCC(=O)N2CCCC2=O)oc2ccccc12	·	-2	·	·	-1.4
Cc1cc(C)n(-c2ncnc3sc4c(c23)CCCC4)n1	6	7	-5%	-30	0.1
Cc1nc2nc(NC(=O)c3ccco3)nn2c(C)c1Cl	·	-23	·	·	0.5
COc1ccc(C2Nc3ccccc3C(=O)N2Cc2ccccc2)cc1CN1CCOCC1 (centres undefined)	·	-19	-12%	·	·
COc1ccc(S(=O)(=O)N(CC(=O)N2CCOCC2)Cc2ccccc2)cc1	7	1	-2%	-28	-2.9
CCC(C)(C)n1nnnc1C(c1ccc2ncccc2c1)N1CCN(c2nc3ccccc3s2)CC1 (centres undefined)	-20	99	72%	-19	16
CC(=O)NC1C(Oc2ccc(C=O)cc2)OC(COC(C)=O)C(OC(C)=O)C1OC(C)=O (centres undefined)	-2	0	-5%	·	-0.6
CCN(CC)S(=O)(=O)c1ccc(N/N=C/c2cc(OC)ccc2O)nc1	-33	68	14%	3	10.0
Cc1cc2ccccn2c1C(=O)c1ccc(Cl)cc1	-3	6	3%	-13	·
Fc1ccc(-c2nnn3c2nc(NCc2ccccc2)c2ccccc23)cc1	·	5	-3%	·	-34
CC(CCc1ccccc1)NS(=O)(=O)c1ccccc1Cl (centres undefined)	·	2	·	·	5.3
O=C(Nc1c(C(=O)O)[nH]c2ccc(F)cc12)c1cccc(C(F)(F)F)c1	·	1	-1%	·	0.8
O=C(Nc1ccc(Cl)c(C(F)(F)F)c1)C1CCCN(S(=O)(=O)c2cnc[nH]2)C1 (centres undefined)	24	-2	-2%	-30	2.5
Cc1ccc(C(=O)Nc2ccccc2-c2ccccc2)o1	-5	12	9%	-32	1.4
O=C(Nc1ccc(F)cc1F)c1csc(-c2cccs2)n1	-6	-4	6%	·	4.0

An excerpt (hit frequency here may not be typical).
